High-throughput results (PubChem)
Rce1 inhib: blocks yeast Ras-converting enzyme; yeast membranes, quenched prenylated peptide cleavage fluorescence; calls only; actives 0.27% (n = 290,000);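 active = fall in fluorescence gain of 50% or more versus controls, with final raw signal at or below 3038400; inconclusive = same 50% fall but final raw signal above 3038400; inactive = fall in fluorescence gain under 50%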;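 note: plate controls were neutral control wells for no effect and wells lacking membranes for full effect; tested at 10 µM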
Target sequence (Q03530 whole entry, looked up): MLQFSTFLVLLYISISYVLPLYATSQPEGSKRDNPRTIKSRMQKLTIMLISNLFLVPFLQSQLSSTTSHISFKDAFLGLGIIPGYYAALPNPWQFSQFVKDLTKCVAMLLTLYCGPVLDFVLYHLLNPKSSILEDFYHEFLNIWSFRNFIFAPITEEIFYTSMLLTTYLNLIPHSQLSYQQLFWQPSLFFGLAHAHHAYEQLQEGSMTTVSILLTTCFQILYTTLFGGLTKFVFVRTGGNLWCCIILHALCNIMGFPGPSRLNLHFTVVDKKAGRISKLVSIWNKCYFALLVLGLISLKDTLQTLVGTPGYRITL
eIF4H FP inh: inhibitors of RNA binding by human eIF4H; inhibition, % at 35 µM; eIF4H fluorescence polarization binding assay; AID 2012; actives 0.94% (n = 290,000); Q15056;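 active = 50% or more with normal probe brightness, or confirmed in later tests; inconclusive = above 50% with abnormal brightness, or retests that disagree; inactive = below 50% or failed in later tests; about a fifth of its hits are not listed in these tables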;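 note: calls also rest on retests at 20 µM and on dose response follow-up; 0% = protein and probe with vehicle and 100% = probe without protein; strong numbers were not always called active; many hits fall short of the cut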
UUG fidelity: modulators of start codon recognition fidelity in yeast. actives 0.13% (n = 350,000). activity score, % at 18.7 µM. S. cerevisiae UUG-firefly luciferase reporter, luminescence/redox ratio;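 active = replicate mean at a twofold rise or more, about +100% in these data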;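 note: firefly luciferase made from a UUG start codon reports start codon fidelity; reporter light over untreated wells divided by growth signal over untreated wells; some hits fall short of that in this replicate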
CSC inhib: cancer stem cell inhibition; cancer stem cell-like cells viability, luminescence; inhibition, % at 7.5 µM; actives 1.1% (n = 300,000);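 active = mean at 75% or more and at least half the replicates too; inconclusive = mean and replicates disagree; tested in HMLE shEcad cells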;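 note: 0% = median of negative and 100% = median of positive control wells; the first replicate is given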
HIV Env fusion: inhibitors of HIV Env-mediated cell fusion | AID 651610 | HeLa-JRFL Env/CEM21 cell fusion, luciferase | actives 1.1% (n = 360,000) | inhibition, % at 12.3 µM;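 active = mean replicate inhibition score of at least 50 and every replicate individually at or above 50; inconclusive = only one of the two criteria met; inactive = mean below 50 and not all replicates reaching 50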;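 note: 0% = plate neutral controls and 100% = maraviroc near 300 nM; one replicate is shown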
MT1-MMP act inh: blocks activation of human MT1-MMP. P50281. HT1080 RFP-PRO-GFP cells, GFP/RFP ratio fluorescence, overnight; percent of plate control window, DMSO zero. GFP/RFP ratio change, % at 20 µM. actives 0.061% (n = 360,000). AID 651647;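 active = GFP/RFP ratio change of at least 30% with cell ATP level not reduced by more than half and red fluorescence within 50% of control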; note: strong numbers were not always called active
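Assay system: RFP-PRO-GFP reporter HT1080 cells; read-out basis: GFP/RFP fluorescence ratio; benchmarks: DMSO wells and RFP-L50D-GFP cells; doses: 20 µM single dose, 1% DMSO; schedule: overnight cell settling, then overnight compound exposure, 37 °C, 5% CO2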
PABP polyA inh: PABP-poly(A) binding inhibition | PABP-poly(A) RNA binding, fluorescence polarization | inhibition, % at 35 µM | actives 1% (n = 290,000) | AID 2014;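 active = 50% or more with normal probe brightness, or confirmed in later tests; inconclusive = above 50% with abnormal brightness, or retests that disagree; inactive = below 50% or failed in later tests; about a fifth of its hits are not listed in these tables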;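 note: calls also rest on retests at 20 µM and on dose response follow-up; controls were probe without protein and protein plus probe with vehicle; some compounds called inactive have numbers as strong as hits; many hits fall short of the cut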
eIF4H FP inh retest: recorded beside eIF4H FP inh, whose call it bears; inhibition, %; compound at 20 µM; confirmation average;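 mean of two retest wells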
PABP polyA inh retest: second read-out of PABP polyA inh, no call of its own (marks repeat the call); inhibition, %; compound at 20 µM; confirmation repeats;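 mean of two retest wells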
MT1-MMP act inh RFP: recorded beside MT1-MMP act inh, whose call it bears; RFP signal change, %; measured here: RFP expression control read;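 0 = vehicle wells; hits needed this value within 50% of zero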
The depositor's hits bear a star; i = inactive; u = inconclusive; x = not tested or not shown; + = active, no number.

SMILES	Rce1 inhib	eIF4H FP inh	UUG fidelity	CSC inhib	HIV Env fusion	MT1-MMP act inh	MT1-MMP act inh RFP	PABP polyA inh	others
COC(=O)c1sc(N2C(=O)c3oc4ccccc4c(=O)c3C2c2cccc(O)c2)nc1C (configuration not stated)	i	15	-4	-4	13	-6	-6	9
COc1cc(OC)cc(C(=O)Nc2cccc3cccnc23)c1	i	3	-25	-16	-7	-1	0	3
COCCNC(=S)N1CCC(C(=O)c2ccc(Cl)cc2)CC1	x	x	-6	x	-4	0	-10	x
Cc1occc1-c1nnc(SCC(=O)Nc2ccccc2)n1C	i	-2	-15	3	3	-13	-2	7
CC(C)CC(=O)c1c[nH]c(C(=O)NCc2ccccc2)c1	i	-4	-2	-11	20	-1	-3	6
COc1ccc(CC(=O)N/N=C(/C)CC(=O)N(C)c2ccccc2)cc1	i	4	x	x	-9	3	4	6
C=CCN1C(=O)/C(=C/c2ccc(O)c(OC)c2)S/C1=N/c1nccs1	i	25	x	x	-12	-97	35	-10
O=C(Cc1c(F)cccc1Cl)N1CCN(S(=O)(=O)c2cccs2)CC1	x	x	-6	-10	8	1	8	x
CN(C(=O)COC(=O)c1ccc([N+](=O)[O-])cc1N)c1ccccc1	i	90	x	6	-1	-5	-2	-3	eIF4H FP inh retest=-8;PABP polyA inh retest=5
CS(=O)(=O)Nc1ccc(C2=NN(S(C)(=O)=O)C(c3cccs3)C2)cc1 (configuration not stated)	+	-7	x	-2	-5	-7	-1	10
COc1ccc(-n2nc(C(=O)NCC(=O)N3CCN(c4ccccc4F)CC3)c3ccccc3c2=O)cc1OC	i	1	x	x	-13	-14	-5	8
CCn1cc(C(=O)N[C@@H](CCSC)C(=O)NCCCn2ccnc2)c(=O)c2cc3c(cc21)OCO3	i	0	-8	-9	-2	1	6	1
COc1ccc(N(CC(=O)Nc2c(C)cccc2C)S(=O)(=O)c2ccccc2[N+](=O)[O-])c(OC)c1	i	-12	-3	-12	6	-4	-13	0
N#Cc1ccc(C(=O)N/N=C/c2cn(CC(=O)O)c3ccccc23)c(F)c1	i	1	x	-5	-2	5	6	2
COc1ccccc1S(=O)Cc1ccc(C(=O)NCc2ccccc2Cl)o1 (configuration not stated)	i	-1	-9	-8	-23	-3	-4	3
Cc1ccccc1NC(=O)Cc1nc(COC(=O)CC(C)c2ccccc2)cs1 (configuration not stated)	x	x	-8	x	2	-2	2	x
O=C(Cn1c(=O)oc2ccccc21)Nc1ccc(F)cc1	i	-6	-2	-7	8	0	0	-1
CC(=O)Nc1cccc(NS(=O)(=O)c2ccc3c(c2)CCC(=O)N3)c1	x	x	-12	x	18	-2	3	x
Cc1n[nH]c(=O)nc1N1CCc2ccccc2C1	i	-8	x	-19	x	5	1	-7
CN(C)CC(=O)c1ccc(-c2ccccc2)cc1	i	-3	-18	x	20	-4	29	3

As a short view, some entries already given.
SMILES	Rce1 inhib	eIF4H FP inh	UUG fidelity	CSC inhib	HIV Env fusion	MT1-MMP act inh	MT1-MMP act inh RFP	PABP polyA inh	others
COC(=O)c1sc(N2C(=O)c3oc4ccccc4c(=O)c3C2c2cccc(O)c2)nc1C (configuration not stated)	i	15	-4	-4	13	-6	-6	9
COc1cc(OC)cc(C(=O)Nc2cccc3cccnc23)c1	i	3	-25	-16	-7	-1	0	3
COCCNC(=S)N1CCC(C(=O)c2ccc(Cl)cc2)CC1	x	x	-6	x	-4	0	-10	x
Cc1occc1-c1nnc(SCC(=O)Nc2ccccc2)n1C	i	-2	-15	3	3	-13	-2	7

Next section:
SMILES	Rce1 inhib	eIF4H FP inh	UUG fidelity	CSC inhib	HIV Env fusion	MT1-MMP act inh	MT1-MMP act inh RFP	PABP polyA inh	others
Cc1ccc(-c2nc(-c3ccccn3)no2)cc1Cl	i	9	-75	63	8	4	3	4
CCn1c(=O)c(C(=O)Nc2nc3ccccc3[nH]2)c(O)c2ccccc21	i	17	-9	67	x	-3	-15	2
O=C(CSC1=NCCS1)NC(NC(=O)CSC1=NCCS1)c1ccccc1	i	-6	x	6	-7	2	2	30
c1cc2nnnn2nc1N1CCCCCC1	i	-14	-7	-18	x	-5	0	-7
COc1cc(OC)cc(C(=O)NC2CCCCCCC2)c1	i	-4	-5	-6	7	-2	1	-6
COc1ccc(CCNC(=O)CSc2nc3c(c(=O)n(C)c(=O)n3C)n2C(C)C)cc1OC	i	-7	-35	17	13	0	-2	-6
O=C(/C=C/c1ccc2c(c1)OCO2)c1ccccn1	i	22	-14	-2	-24	-7	7	23
CCOCCCNC(=O)C1CCN(Cc2cccc(OCc3ccccc3)c2)CC1	x	5	-16	-5	-1	4	0	-1
CCOc1ccc(NC(=S)NNC(=O)c2ccc(Br)cc2)cc1	i	6	x	-17	6	4	2	21
CC(Cc1ccco1)NC(=O)c1cccc(S(=O)(=O)N(C)C)c1 (configuration not stated)	i	-5	-9	2	-16	1	5	-4
O=C(c1cccs1)N(Cc1cc2ccccc2[nH]c1=O)c1ccccc1	i	4	x	-6	x	-12	-7	-2
CCCCCCCn1ccc(O)c(CC(=O)OC)c1=O	i	6	x	-3	5	2	4	5
COc1ccc(N2CCN(C(CNC(=O)C(=O)NCc3cccs3)c3ccco3)CC2)cc1 (configuration not stated)	i	-4	x	-3	1	4	4	7
COC(=O)c1ccc(C(=O)OC)c(N)c1	i	4	x	10	x	x	x	10
COc1ccc(C(CNC(=O)c2ccc(NS(=O)(=O)c3ccc4c(c3)OCCO4)cc2)N(C)C)cc1 (configuration not stated)	i	x	0	0	x	-5	2	x
COc1ccc(C2CC(c3ccc(C)cc3)=NN2C(=O)CCC(=O)O)cc1OC (configuration not stated)	i	3	12	-9	-38	-1	4	7
CC(C)CNC(=O)c1cc(S(=O)(=O)N2CCOCC2)ccc1N1CCCC1	i	5	-3	-6	3	-2	3	1
O=S(=O)(Nc1nc2ccccc2nc1N1CCN(c2ccccc2)CC1)c1ccc(F)cc1	i	65	x	28	19	-10	-3	3	eIF4H FP inh retest=-8;PABP polyA inh retest=-2
O=C(Nc1ccc(Cl)cc1)Nc1cccc2nsnc12	i	-7	-8	31	-62	2	-8	14
CCC(C(=O)NCc1cccnc1)n1nc(C)n2c(cc3occc32)c1=O (configuration not stated)	i	0	-14	-17	-4	1	9	3
Cc1ccccc1SCc1noc(C(=O)NCC2CCCO2)c1C(=O)O (configuration not stated)	i	-3	5	6	u	-1	2	2
C[C@@H](C(=O)Nc1ccccc1N1CCOCC1)N1C(=O)C2CCCCC2C1=O (some centres not stated)	x	x	-6	-14	x	1	4	x
CCCN(Cc1ccccc1)C(=O)Nc1ccc2c(c1)nnn2C	i	-7	-5	6	x	7	2	-2
CSc1ccccc1-c1nnc(-c2ccc(Cl)cc2)o1	i	7	1	-8	x	3	0	10
COC(=O)Cc1[nH]nc2c1C(c1c[nH]c3ccccc13)C(C#N)=C(N)O2 (configuration not stated)	i	-2	-7	-9	-470	2	-2	-1
CN(C(=O)CCN1C(=O)/C(=C/c2ccc(F)cc2)SC1=S)C1CCS(=O)(=O)C1 (configuration not stated)	x	x	-3	x	1	5	0	x
Cn1cnc(S(=O)(=O)Nc2ccc(OC(F)F)cc2)c1	i	-2	x	-4	-4	0	0	-9
Oc1cc(Br)ccc1C=Nc1ccc(N2CCCCC2)cc1	i	1	-20	3	-4	12	16	-1
O=C(O/N=C/c1ccc(Br)cc1)c1ccc(F)cc1	i	x	-9	-7	2	2	1	x
COc1cc(OC)cc(-c2oc(=O)c3cc(OC)c(OC)cc3c2C#CCCO)c1	x	x	-14	2	-11	1	0	x
COc1ccc(OC)c(C(=O)CSc2nccc(-c3ccc(Br)cc3)n2)c1	i	9	-16	79*	1	-13	-18	2
COc1ccc2c(c1)Sc1ccccc1N2CCN(C)C	i	-8	-14	3	x	-7	-1	13
CCSC(C)CC1C/C(=N/O)c2c(CC)noc2C1 (configuration not stated)	i	1	-14	-9	x	2	-4	1
COc1ccc(C)cc1NCc1cccc(OC)c1OC	i	6	-12	x	-4	5	3	19
O=C(O)CC(SCC(=O)NC1CCCc2ccccc21)C(=O)O (configuration not stated)	i	2	x	-13	-14	1	1	-8
COc1ccc(OC)c(-n2nnnc2SCC(=O)Nc2ccccc2OC)c1	i	-2	10	-4	14	-2	-5	-6
Cc1ccc(C(=O)Nc2ccc(Cl)cc2C(F)(F)F)c(Cl)c1	i	4	-6	-1	-40	3	1	1
CCOC(=O)C1(CCc2ccccc2)CCN(Cc2ccc(OC)cc2)CC1	i	-2	x	34	-16	-1	1	-14
Cc1ccc(-c2nc(NC(=O)CSc3nnc4scc(-c5ccccc5)n34)ns2)cc1	i	25	-25	4	37	-4	-25	1
O=C(N=C1SC2CS(=O)(=O)CC2N1Cc1ccccc1Cl)C1CCCO1 (configuration not stated)	i	-6	-13	-5	5	-3	4	-6
CCSc1nc(C2CC2)cc(-c2ccco2)c1C#N	i	2	-7	-6	x	-4	6	4
Cc1ccc(N2C(=O)C3C4C=CC(CC4)C3C2=O)c([N+](=O)[O-])c1 (configuration not stated)	i	0	5	3	-6	0	2	-5
CSc1nnc(SCC#N)s1	i	0	-5	-8	3	-1	0	2
CC(Cc1cccnc1)NC(=O)c1cc(COc2ccc(F)cc2Cl)on1 (configuration not stated)	i	-3	0	6	5	1	0	-11
CC1(C)C2CCC1(CS(=O)(=O)N1CCC(C(N)=O)CC1)C(=O)C2 (configuration not stated)	i	-11	-9	12	-8	-3	1	-2
Cc1ccc(C)c(S(=O)(=O)Nc2ccc(C(=O)NCC(c3ccco3)N(C)C)cc2)c1 (configuration not stated)	i	x	x	-16	4	2	3	x
COC(=O)c1cccc(NC(=S)Nc2cc(Cl)ccc2OC)c1	i	-4	x	-1	1	3	2	-6
c1ccc(C(c2nnnn2C2CCCC2)N2CCN(c3nc4ccccc4s3)CC2)cc1 (configuration not stated)	i	-6	-14	-10	17	-13	-20	-8
CCC1C/C(=C\c2cccnc2)C(=O)/C(=C/c2cccnc2)C1 (configuration not stated)	x	-6	x	x	u	-27	-40	-3
Clc1ccc(OCc2nnc3n2N=C(c2ccc4c(c2)OCCO4)CS3)c(Cl)c1	i	-6	x	66	56	-6	-5	-7
Cc1ccc(O)c(NC(=O)C2=CC(c3ccco3)=NS(=O)(=O)N2C)c1	i	-1	-6	x	6	0	0	-2
CCN(CC)CCN(C)C(=O)c1ccc(OC2CCN(C(=O)C3CC3)CC2)cc1	i	1	12	-26	-1	4	2	4
CCC(C)C(Nc1ccc(C(=O)OC)cc1[N+](=O)[O-])C(=O)OC (configuration not stated)	i	8	x	x	7	-1	2	-13
Cc1cccc(NS(=O)(=O)c2cc(C(=O)NCCC3=CCCCC3)ccc2Cl)c1	i	-35	-5	45	x	-11	-26	-6
COC(=O)Cc1ccc(NC(=S)NCCC(C)C)cc1	i	6	-34	-9	2	-2	1	13
COc1cccc(-c2csc(N3CCN(C(=S)Nc4cccc(C)c4)CC3)n2)c1	i	-11	x	-5	12	-2	-5	-10
CC(=O)NC(Cc1cc(C)ccc1C)C(=O)N1CCN(C(=O)c2ccc(Br)cc2)CC1 (configuration not stated)	i	-6	x	-6	15	-2	0	0
O=C1NC(=O)C(c2ccc(Cl)cc2)N1 (configuration not stated)	x	2	-14	-10	13	-2	4	-5
COc1ccccc1CNC(=O)c1cc(C)nn1-c1ccccc1	i	-2	x	-4	36	-7	-3	5
